PABP FP inh: blocks human PABP binding to poly(A) RNA | inhibition, % at 35 µM | P11940 | 1% of 290,000 active | fluorescence polarization;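 active = 50% or more with normal probe brightness, or confirmed in later tests; inconclusive = above 50% with abnormal brightness, or retests that disagree; inactive = below 50% or failed in later tests; about a fifth of its hits are not listed in these tables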;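 also: calls also rest on retests at 20 µM and on dose response follow-up; controls were probe without protein and protein plus probe with vehicle; some compounds called inactive have numbers as strong as hits; many hits fall short of the cut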
Target sequence (P11940 whole entry, looked up): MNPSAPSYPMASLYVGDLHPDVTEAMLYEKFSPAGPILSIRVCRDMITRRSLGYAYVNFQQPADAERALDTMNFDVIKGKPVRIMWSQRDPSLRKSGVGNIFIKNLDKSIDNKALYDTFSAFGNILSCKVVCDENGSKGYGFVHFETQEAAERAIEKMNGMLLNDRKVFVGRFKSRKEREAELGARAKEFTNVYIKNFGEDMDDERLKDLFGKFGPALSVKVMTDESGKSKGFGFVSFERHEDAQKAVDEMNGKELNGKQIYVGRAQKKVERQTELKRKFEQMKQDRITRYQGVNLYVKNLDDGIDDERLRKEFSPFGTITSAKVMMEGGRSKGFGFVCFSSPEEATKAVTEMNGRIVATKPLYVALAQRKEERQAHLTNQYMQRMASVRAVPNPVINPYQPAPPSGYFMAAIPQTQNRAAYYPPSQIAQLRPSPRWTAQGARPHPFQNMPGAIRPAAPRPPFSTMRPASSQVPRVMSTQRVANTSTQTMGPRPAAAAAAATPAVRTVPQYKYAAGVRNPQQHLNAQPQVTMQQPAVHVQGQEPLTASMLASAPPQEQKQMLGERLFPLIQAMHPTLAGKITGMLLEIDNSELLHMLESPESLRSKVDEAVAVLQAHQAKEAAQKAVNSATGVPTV
HIV Env fusion: blocks HIV Env-driven cell-cell fusion. inhibition, % at 12.3 µM. HeLa-JRFL Env/CEM21 cell fusion, luciferase. 1.1% of 360,000 active. AID 651610;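 active = mean replicate inhibition score of at least 50 and every replicate individually at or above 50; inconclusive = only one of the two criteria met; inactive = mean below 50 and not all replicates reaching 50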;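 also: 0% = plate neutral controls and 100% = maraviroc near 300 nM; one replicate is shown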
MT1-MMP act inh: MT1-MMP (human) activation inhibition; P50281; 0.061% of 360,000 active; HT1080 RFP-PRO-GFP cells, GFP/RFP ratio fluorescence, overnight; percent of plate control window, DMSO zero; GFP/RFP ratio change, % at 20 µM; AID 651647;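 active = GFP/RFP ratio change of at least 30% with cell ATP level not reduced by more than half and red fluorescence within 50% of control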; also: strong numbers were not always called active
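Test system: HT1080 cells expressing an RFP-PRO-GFP fluorescent reporter construct / Compound dosing: single-point 20 µM compound, 1% DMSO / Schedule: cells overnight before dosing, compound overnight, 37 °C, 5% CO2 / Evaluation: GFP/RFP fluorescence ratio / Control set: DMSO and RFP-L50D-GFP cell wells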
eIF4H FP inh: inhibitors of RNA binding by human eIF4H; inhibition, % at 35 µM; 0.94% of 290,000 active; Q15056; eIF4H fluorescence polarization binding assay; AID 2012;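 active = 50% or more with normal probe brightness, or confirmed in later tests; inconclusive = above 50% with abnormal brightness, or retests that disagree; inactive = below 50% or failed in later tests; about a fifth of its hits are not listed in these tables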;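 also: calls also rest on retests at 20 µM and on dose response follow-up; 0% = protein and probe with vehicle and 100% = probe without protein; strong numbers were not always called active; many hits fall short of the cut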
Yeast UUG start: alters start codon recognition fidelity in yeast; AID 602363; S. cerevisiae UUG-firefly luciferase reporter, luminescence/redox ratio; 0.13% of 350,000 active; activity score, % at 18.7 µM;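 active = replicate mean at a twofold rise or more, about +100% in these data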;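 also: firefly luciferase made from a UUG start codon reports start codon fidelity; reporter light over untreated wells divided by growth signal over untreated wells; some hits fall short of that in this replicate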
CSC inhib: blocks cancer stem cells | cancer stem cell-like cells viability, luminescence | inhibition, % at 7.5 µM | 1.1% of 300,000 active | AID 2717;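 active = mean at 75% or more and at least half the replicates too; inconclusive = mean and replicates disagree; tested in HMLE shEcad cells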;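 also: 0% = median of negative and 100% = median of positive control wells; the first replicate is given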
Rce1 inh: blocks yeast Ras-converting enzyme | yeast membranes, quenched prenylated peptide cleavage fluorescence | 0.27% of 290,000 active | AID 2563 | calls only;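 active = fall in fluorescence gain of 50% or more versus controls, with final raw signal at or below 3038400; inconclusive = same 50% fall but final raw signal above 3038400; inactive = fall in fluorescence gain under 50%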;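 also: plate controls were neutral control wells for no effect and wells lacking membranes for full effect; tested at 10 µM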
eIF4H FP inh retest: also measured in eIF4H FP inh; calls as there; inhibition, %; compound at 20 µM; confirmation average;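 mean of two retest wells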
PABP FP inh retest: further read-out of PABP FP inh, marked with its call; inhibition, %; compound at 20 µM; confirmation repeats;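 mean of two retest wells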
MT1-MMP act inh RFP: further read-out of MT1-MMP act inh, marked with its call; RFP signal change, %; measured here: RFP expression control read;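 0 = vehicle wells; hits needed this value within 50% of zero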
Numbers without * were called inactive; i = inactive; ? = inconclusive; nt = no result given.

SMILES	PABP FP inh	HIV Env fusion	MT1-MMP act inh	MT1-MMP act inh RFP	eIF4H FP inh	Yeast UUG start	CSC inhib	Rce1 inh	others
CC(CC1CC(C)(C)OC1=O)C(=O)Nc1ccc([N+](=O)[O-])cc1 (configuration not stated)	-5	9	1	-2	6	nt	-1	i
O=C(Nc1cc2c(cc1Cl)OCCO2)c1ccco1	-6	-47	-313	-82	-6	-4	-7	i
COc1cccc(OCc2nnc(SCC(=O)NCc3ccco3)n2C)c1	3	-12	0	2	0	-15	nt	i
Cc1ccc(C)c(NC(=O)CCCCCN2C(=O)[C@@H]3Cc4ccccc4CN3C2=O)c1	8	9	2	-2	-7	-21	13	i
Cc1ccc(-c2nnc3n2N=C(c2ccc(Br)cc2)CS3)cc1	0	-11	3	-2	-2	-7	15	i
O=C(COC(=O)c1ccncc1)NCCCc1ccccc1	12	-6	-3	4	5	nt	0	i
O=C(NCCSCc1ccco1)c1ccc(=O)[nH]c1	-6	-1	-3	2	8	-8	-7	i
CCOC(=O)c1cccc(NC(=O)CSc2nnc(COc3ccc(Cl)cc3)o2)c1	6	9	-4	1	2	nt	-7	i
O=C(NCN1CCc2ccccc2C1)c1ccccc1	4	-28	3	3	3	-19	-4	nt
O=C(CCCN1C(=O)c2ccccc2C1=O)Oc1ccc(F)cc1	0	-46	5	2	8	nt	-15	i
CC1CCCCC1NC(=S)NC(=O)c1ccccc1Br (configuration not stated)	-3	14	4	4	-6	nt	-6	i
Cc1ccc(CNC(=O)COC(=O)COc2ccc(C#N)cc2)cc1	nt	-16	6	8	nt	-17	nt	nt
CCCN(c1ccccc1C(=O)O)S(=O)(=O)c1ccc2c(c1)n(C)c(=O)n2C	-3	7	-1	3	-6	-16	0	i
Cc1ccccc1NC(=O)C1CCN(S(=O)(=O)c2ccc3c(c2)NC(=O)C(C)S3)CC1 (configuration not stated)	-9	-1	-2	-7	-1	-3	-3	i
CC(C)OP(=O)(c1ccccc1)c1ccccc1	0	nt	-3	-3	-6	-11	-11	i

Ordered by formula weight (ascending): part of the list above.
SMILES	PABP FP inh	HIV Env fusion	MT1-MMP act inh	MT1-MMP act inh RFP	eIF4H FP inh	Yeast UUG start	CSC inhib	Rce1 inh	others
CC(C)OP(=O)(c1ccccc1)c1ccccc1	0	nt	-3	-3	-6	-11	-11	i
Cc1ccc(CNC(=O)COC(=O)COc2ccc(C#N)cc2)cc1	nt	-16	6	8	nt	-17	nt	nt
Cc1ccccc1NC(=O)C1CCN(S(=O)(=O)c2ccc3c(c2)NC(=O)C(C)S3)CC1 (configuration not stated)	-9	-1	-2	-7	-1	-3	-3	i

Back to the main list; the 2 compounds before the break are reprinted first.
SMILES	PABP FP inh	HIV Env fusion	MT1-MMP act inh	MT1-MMP act inh RFP	eIF4H FP inh	Yeast UUG start	CSC inhib	Rce1 inh	others
Cc1ccccc1NC(=O)C1CCN(S(=O)(=O)c2ccc3c(c2)NC(=O)C(C)S3)CC1 (configuration not stated)	-9	-1	-2	-7	-1	-3	-3	i
CC(C)OP(=O)(c1ccccc1)c1ccccc1	0	nt	-3	-3	-6	-11	-11	i
Cc1ccccc1C(=O)NCCCNC(=O)c1ccccn1	-3	5	-2	4	-12	-17	-5	i
Fc1cnc(N2CCc3ccccc32)nc1N1CCc2ccccc21	-5	-57	0	3	0	-26	-1	i
CCOc1ccc(C(=O)Nc2ccc(S(=O)(=O)N3C[C@@H]4C[C@@H](C3)c3cccc(=O)n3C4)cc2)cc1	nt	nt	-2	3	nt	1	-9	nt
CC(C)CCSc1nc2c(c(=O)[nH]c(=O)n2C)n1CCc1ccccc1	15	nt	0	-6	-3	-3	1	i
CC(C)OCCCNC(=O)CN1C(=O)COc2ccc(S(=O)(=O)N3CCCCCC3)cc21	-8	9	0	3	8	-4	nt	i
C=CCOc1ccccc1CN1CCC(n2nccc2NC(=O)C2CC2)CC1	-11	-14	1	2	-3	-4	nt	i
Oc1c(Cl)cc(Cl)cc1CNc1ccc(Br)cn1	13	-14	5	6	-8	-3	?	i
CCOC(=O)c1sc(N(Cc2ccccc2)C(=O)COC(=O)c2ccccc2O)nc1C	0	16	-4	-3	-3	nt	-2	i
C[C@]12C=CC(=O)C=C1CC[C@@H]1C2=CC[C@]2(C)[C@@H](C(=O)CN3CCN(c4cc(N5CCCC5)nc(N5CCCC5)n4)CC3)CC[C@@H]12	nt	-5	-11	-1	nt	-16	-2	i
CCOc1ccc2nc(N/C(N)=N/C(=S)Nc3ccc(C)c(C)c3)nc(C)c2c1	-2	nt	-3	-6	10	nt	55	i
C/C(=N\N1CCN(C2c3ccccc3-c3ccccc32)CC1)c1ccco1	4	20	-3	2	5	nt	0	i
CCOC(=O)c1sc(=S)n(-c2cccc(C(F)(F)F)c2)c1SC	-10	-26	0	5	3	-13	7	i
CCOC(=O)N1CCN(C(=O)c2c[nH]c3ccc(S(=O)(=O)N(C)c4cccc(C)c4)cc3c2=O)CC1	1	-2	7	5	1	-9	-2	i
CCOc1cccc(NC(=O)c2cccc(F)c2)c1	3	-31	0	-4	2	nt	-4	i
COC(=O)c1sc(NC(=O)c2ccc([N+](=O)[O-])o2)c(C#N)c1C	8	3	4	-34	-1	nt	nt	i

Next section, starting with the last 4 of the part before.
SMILES	PABP FP inh	HIV Env fusion	MT1-MMP act inh	MT1-MMP act inh RFP	eIF4H FP inh	Yeast UUG start	CSC inhib	Rce1 inh	others
CCOC(=O)c1sc(=S)n(-c2cccc(C(F)(F)F)c2)c1SC	-10	-26	0	5	3	-13	7	i
CCOC(=O)N1CCN(C(=O)c2c[nH]c3ccc(S(=O)(=O)N(C)c4cccc(C)c4)cc3c2=O)CC1	1	-2	7	5	1	-9	-2	i
CCOc1cccc(NC(=O)c2cccc(F)c2)c1	3	-31	0	-4	2	nt	-4	i
COC(=O)c1sc(NC(=O)c2ccc([N+](=O)[O-])o2)c(C#N)c1C	8	3	4	-34	-1	nt	nt	i
COC(=O)c1cccc(Cn2nc(C)c([N+](=O)[O-])c2C)c1	3	24	1	1	9	nt	-11	i
CC(C)C(=O)NC(=S)Nc1ccc(S(=O)(=O)NC2CCCCC2)cc1	11	23	-3	-9	8	-9	5	i
CCc1nnc(NS(=O)(=O)c2ccc(NCc3cc(Cl)cc(Cl)c3O)cc2)s1	23	-9	0	7	3	5	19	i
Cc1cc2occ(CC(=O)N(CC(C)C)c3c(N)n(Cc4ccccc4)c(=O)[nH]c3=O)c2cc1C	nt	-43	-7	-6	nt	7	-6	i
COc1cc(NS(=O)(=O)c2ccc(NC(=O)C34CC5CC(CC(C5)C3)C4)cc2)ncn1	-4	nt	-2	0	6	-4	-9	i
COc1cccc(Oc2coc3cc(OC(=O)N4CCOCC4)ccc3c2=O)c1	0	19	2	-3	1	nt	nt	i
Cc1cccc(N(C)S(=O)(=O)c2ccc3[nH]c(=O)c(=O)[nH]c3c2)c1	-9	13	5	7	-15	-10	10	i
CCCN1CNC(=S)N(c2cc(C)ccc2C)C1	-7	-33	-2	-3	-2	-26	0	nt
O=C(CSc1nc(-c2ccccc2)c(-c2ccccc2)o1)NCCCO	nt	5	2	-3	nt	2	14	i
OCCN1CCN(C2Cc3cc(Cl)ccc3Sc3ccc(Cl)cc32)CC1 (configuration not stated) (tested in a mixture with another compound)	2	nt	-11	-10	-8	1	nt	i
O=C(O)c1ccccc1C(=O)Nc1ccc(Nc2ccccc2)cc1	nt	17	33*	21*	nt	-4	nt	nt
COC(=O)C[C@H](NC(=O)Cn1cc(C)c(=O)[nH]c1=O)C(=O)OC	nt	3	4	7	nt	-39	nt	nt
COc1c(F)c(F)c(C(=O)Nc2ccc(-c3nc4ccccc4[nH]3)cc2)c(F)c1F	20	8	1	4	-2	nt	0	i
NC(=O)N\N=C/C=C/C=C/c1ccc(F)cc1	-11	-13	1	2	-2	-6	-9	i
Cc1ccccc1-c1ccc(=O)n(CC(=O)Nc2ccc(S(=O)(=O)N(C)C)cc2)n1	6	11	4	3	-1	nt	-19	i
COc1ccc(S(=O)(=O)NNC(=O)C23CC4CC(CC(C4)C2)C3)cc1	-7	-54	1	4	7	-1	0	i
CCOC(=O)C1CCCN(c2c(Nc3cc(C)cc(C)c3)c(=O)c2=O)C1 (configuration not stated)	1	-11	4	3	-13	-13	-6	i
COc1cccc(NC(=O)c2ccc(-c3ccc([N+](=O)[O-])cc3)o2)c1	36*	-4	-10	0	55	nt	2	i	eIF4H FP inh retest=2;PABP FP inh retest=78*
CC(NS(=O)(=O)c1ccccc1)C(=O)NC1CCCC1 (configuration not stated)	-5	-4	1	8	32	-35	-13	i
COc1ccc(/C=N/NC(=O)c2ccc(CSc3nc(C)cc(C)n3)cc2)cc1O	-4	21	10	10	3	nt	25	i
C=CCc1cccc(C=Nc2ccc(Br)cc2)c1O	-1	12	1	2	2	nt	28	i
COc1ccccc1CNC(=O)CCCNC(=O)Cn1cnc2sc(C)c(C)c2c1=O	6	-7	-1	-2	-2	-16	-37	i
Cc1ccc(S(=O)(=O)N2CCN(C(=O)COC(=O)Cc3ccc(Cl)cc3)CC2)c(C)c1	nt	-2	-2	2	nt	1	nt	nt
CC(C)N1C(=O)/C(=C/c2nc3ccccc3c(=O)n2-c2ccccc2)c2ccccc21	-6	nt	-15	-23	-10	nt	66	i
CCOC(=O)N1CCN(C(=O)C2CCN(S(=O)(=O)c3ccc(Cl)cc3)CC2)CC1	-7	-66	-5	-3	2	-1	5	i
C=CCOc1ccc(CNC(C)(C)CO)cc1OCC	-3	nt	-1	2	3	-14	-12	i
Cc1ccc(CNC(=O)Cn2nnc3ccccc3c2=O)cc1	7	-6	2	2	0	nt	-6	i
Cc1cc(C)n(-c2ccc(C(=O)N3CCN(c4ccccn4)CC3)cc2)n1	nt	nt	-4	1	nt	-9	-5	nt
CCCNC(=O)CCc1c(C)nc2c(c(C)nn2-c2ccccc2)c1C	5	15	0	3	-2	2	-7	i
Cc1ccc(-c2nn(-c3ccccc3)cc2C(=O)OCC(=O)Nc2ncc(Cl)cc2Cl)cc1	4	15	-4	1	9	nt	-12	i

Next section; it opens with the 4 that closed the last part.
SMILES	PABP FP inh	HIV Env fusion	MT1-MMP act inh	MT1-MMP act inh RFP	eIF4H FP inh	Yeast UUG start	CSC inhib	Rce1 inh	others
Cc1ccc(CNC(=O)Cn2nnc3ccccc3c2=O)cc1	7	-6	2	2	0	nt	-6	i
Cc1cc(C)n(-c2ccc(C(=O)N3CCN(c4ccccn4)CC3)cc2)n1	nt	nt	-4	1	nt	-9	-5	nt
CCCNC(=O)CCc1c(C)nc2c(c(C)nn2-c2ccccc2)c1C	5	15	0	3	-2	2	-7	i
Cc1ccc(-c2nn(-c3ccccc3)cc2C(=O)OCC(=O)Nc2ncc(Cl)cc2Cl)cc1	4	15	-4	1	9	nt	-12	i
COc1ccc(C(=O)NCC(C)(C)CNC(=O)c2ccc(OC)c(OC)c2)cc1OC	nt	-1	10	4	nt	nt	1	nt
CCOC(=O)C1=C(Nc2ccccc2)OCC1=O	0	-134	3	6	2	-22	-12	i
COc1ccccc1Cn1c(=O)oc2ccccc21	nt	-43	2	6	nt	-15	nt	nt
O=C(Cc1cccs1)Nc1nnc(SCc2ccc(F)cc2)s1	-27	-4	4	1	5	2	0	i

Compound activity: PubChem BioAssay, several laboratories

Not a hit list; about 2.9% have a hit in one of these screens.
